Sfp inh: blocks B. subtilis Sfp PPTase activity; Q9F4F7; Biochemical Sfp PPTase activity, qHTS; Potency, µM, for inactives: max response, negative = inhibition, actives largely listed as inhibitors; actives 3.5% (n = 310,000); active = well fitted inhibition curve with a large enough effect; inconclusive = small, poorly fitted or top-dose-only effect, or another doubt; inactive = no such curve, though single readings can be large or run the other way;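 also: the enzyme is Sfp with the accession as filed and its product quenches rhodamine fluorescence; potency is read from the fitted curve at half-maximal effect; 0% = enzyme reaction without inhibitor and -100% = no enzyme wells; top concentration of the series not given in the record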
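Compounds were incubated with enzyme (final 15 nM) for 15 min at room temperature before substrate addition started the reaction. Fluorescence at 525 nm excitation, 598 nm emission was recorded immediately and after 30 minutes.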
gsp antag: antagonists of gsp mutant (McCune-Albright syndrome) | actives 0.4% (n = 340,000) | AID 624288 | Potency, µM (titrated, usually from 76.9 µM), inactives show at the highest dose activity change, negative = inhibition, actives largely listed as inhibitors | gsp-mutant cells, cAMP HTRF, 30 min; control for the full effect not named in the record; active = falling curve of any shape with a large fitted effect; inconclusive = falling curve, mostly with a smaller effect; inactive = flat or rising curve; cell line not stated here;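 also: intracellular cAMP measured with PDE inhibitor Ro 20-1724 present during compound exposure; potency is read from the fitted curve at half-maximal effect; % is scaled to controls: 0 for no effect and ±100 for the full control effect; nearly all actives have a fitted effect of over 65% in size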
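HTRF cAMP read-out (cAMP-d2 plus anti-cAMP antibody-K in lysis buffer, 30 min RT). Before lysis, cells are exposed to compounds with […] for 30 min at 37C in DPBS containing Ca/Mg, BSA and Tween 20.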
TRPV1 potentiator: human TRPV1 potentiation; actives 0.02% (n = 320,000); TRPV1-expressing cells, Fluo-8 calcium influx, capsaicin EC20 potentiation; host cell line not named in the record; control for the full effect not named in the record; Q8NER1; AID 540277; potentiation, % at 8.33 µM; active means potentiation above 80%; inconclusive means 30% to 80%; inactive means below 30%; also: 0% is about no effect
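Fluo-8 calcium influx in TRPV1-expressing cells, kinetic read (ex 480/em 520 nm). Compound added and read 3 min for agonist activity, followed by capsaicin at EC20 final and 2 min further read for enhancement.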
gsp agonist: agonists of gsp mutant (McCune-Albright syndrome); gsp mutant cells, cAMP HTRF, 30 min; control for the full effect not named in the record; Potency, µM (top dose mostly 76.9 µM), for inactives: top-dose activation (cAMP increase), actives largely listed as activators; actives 0.13% (n = 340,000); active = well fitted activation curve with a large enough effect; inconclusive = small, poorly fitted or top-dose-only effect, or another doubt; inactive = no such curve, though single readings can be large or run the other way; cell line not stated here;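 also: phosphodiesterase inhibitor Ro 20-1724 added with compounds to block cAMP breakdown; potency is read from the fitted curve at half-maximal effect; nearly all actives have a fitted effect of over 60% in size; about a fifth of the inactives were tested at one dose only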
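Cells stably selected in G418 were plated at 2000/well, grown 16-24 hr, then given compounds in DMSO with the PDE inhibitor […] (300 uM solution added) for 30 min at 37C; cAMP was read by HTRF.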
D2 PAM: positive allosteric modulators of human D2 dopamine receptor; P14416; DiscoveRx D2 beta-arrestin cells, luminescence, 90 min; 100% = 57 uM dopamine signal; potentiation, % (concentration not given with the values); actives 0.23% (n = 360,000); active = potentiation of 50% or more; inconclusive = 30% to 50%; inactive = 30% or less;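 also: compound concentration not given in the record; tested on top of an EC20 dose of dopamine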
Target sequence (P14416 whole entry, looked up): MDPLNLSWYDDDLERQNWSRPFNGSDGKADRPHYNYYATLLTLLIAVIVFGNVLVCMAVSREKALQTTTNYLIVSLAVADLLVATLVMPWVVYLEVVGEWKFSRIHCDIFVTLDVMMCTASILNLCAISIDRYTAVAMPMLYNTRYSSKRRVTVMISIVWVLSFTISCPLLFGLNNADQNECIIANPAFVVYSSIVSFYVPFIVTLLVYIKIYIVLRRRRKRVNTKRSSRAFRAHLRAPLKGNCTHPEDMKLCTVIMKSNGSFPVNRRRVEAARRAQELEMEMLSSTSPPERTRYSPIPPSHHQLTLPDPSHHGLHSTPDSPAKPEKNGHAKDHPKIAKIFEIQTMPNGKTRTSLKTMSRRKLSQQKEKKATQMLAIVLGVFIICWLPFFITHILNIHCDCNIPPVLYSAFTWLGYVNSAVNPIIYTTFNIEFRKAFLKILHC
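PathHunter D2 cells, attached overnight at 37 deg C, received compound in DMSO plus dopamine at EC20 (50 nM final) for 90 min at 37 deg C. Beta-arrestin recruitment was read as luminescence after 1 h with detection reagent at ambient temperature.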
Menin-MLL FL inh: inhibitors of human menin-MLL interaction, wild-type MLL peptide | FP activity change, % at 61.4 µM | Fluorescence polarization, fluorescein-MLL peptide displacement from menin | 290,000 tested, under 10 active; inconclusive = falling polarisation curve, or a change in total fluorescence; inactive = total fluorescence flat and polarisation flat or rising; no compound was filed as active; the % refers to the polarisation; negative = inhibition;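 also: % of control where 0% means no effect; inhibitors lower the polarisation; unlabelled MLL peptide was the positive control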
ClpP mod: qHTS Assay for Activators of ClpP; ATP-dependent Clp protease proteolytic subunit (Bacillus subtilis (strain 168)), P80244; actives 1.9% (n = 340,000); AID 651965, 2013; purified B. subtilis ClpP, FRET peptide cleavage, 20 min; Potency, µM (doses to about 57.5 µM), without a hit: top-dose activity change, negative = active; active = well fitted falling curve with a large enough effect; inconclusive = small, poorly fitted or top-dose-only effect; inactive = no such curve, though single readings can be large or run the other way; also: potency is read from the fitted curve at half-maximal effect; the source files actives as falling curves though it sought activators and does not explain the sign; nearly all actives have a fitted effect of over 65% in size; many hits overshoot -100%
Target sequence (P80244 whole entry, looked up): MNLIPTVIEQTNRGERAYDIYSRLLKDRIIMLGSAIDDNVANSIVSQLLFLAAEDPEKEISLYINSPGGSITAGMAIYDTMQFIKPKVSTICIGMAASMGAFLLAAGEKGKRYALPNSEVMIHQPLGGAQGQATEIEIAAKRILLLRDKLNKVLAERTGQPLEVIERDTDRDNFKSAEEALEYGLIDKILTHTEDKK
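Purified B. subtilis ClpP, 10 microg/mL final in Tris/HCl pH8 with KCl, BSA, glycerol and Tween-20, cleaved an Abz/nitrotyrosine-quenched decapeptide. Fluorescence (ex 320, em 430) was read at 0 and 20 min at room temperature. Delta was normalized to 5.8 microM ADEP and DMSO/no-enzyme controls.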
* = called active by the depositor; ? = inconclusive; nt = no result given; & = joins results of further samples; [ ] = another dose, or the depositor's remark. Outcome played no part in choosing rows. About 5.1% of those tested had a hit in this group.

The line under a structure holds: D2 PAM	Sfp inh	Menin-MLL FL inh	TRPV1 potentiator	gsp agonist	gsp antag	ClpP mod
CCc1nnc(NC(=O)CSc2nccn2-c2ccccc2)s1
 : 5	8%	3.8	5	4%[15.4 µM]	2%	-2.0%
Cc1sc2ncn(CC(=O)NCCc3ccccc3)c(=O)c2c1C
 : -14	-2%	5.2	-1	?	3%	-3.8%
COC(=O)c1sc(S(=O)(=O)NCc2cccs2)c(C(=O)OC)c1C
 : -9	20%	0.8	-5	2%	-3%	-0.3%
Cc1nnsc1S(=O)c1ccc(Br)cc1 (stereo not given)
 : -7	-4%	-5.1	?	0%	-4%	-0.2%
CC(=O)Oc1ccc(/C(C)=N/N2CCN(Cc3ccc(C)cc3)CC2)cc1
 : -17	24%	0.8	14	-4%[15.4 µM]	2%	-1.2%
CCN(C)c1ccc(/C=N\n2nnnc2N)cc1
 : 12	-3%	4.7	nt	3%	-5%	-11%
C/C(=N\n1c(C)nc2ccccc2c1=O)c1ccc(N)cc1
 : -7	nt	nt	nt	11%	12%	1.3%
Cc1ccsc1-c1nc(CN2CCCC2c2ccc(F)cc2)c(C)o1 (stereo not given)
 : 0	7%	3.0	17	16%	2%	-6.7%
O=C(O)CCn1cc(-c2ccc(F)cc2)nc1-c1ccncc1
 : -7	nt	nt	-9	nt	10%	-3.0%
NC(=O)N[C@@H](Cc1c[nH]c2ccccc12)C(=O)OCC(=O)N1CCCCC1
 : -4	14%	1.6	-2	0%[15.4 µM]	17%	nt
CCCN(CC(=O)Nc1ccc(C(N)=O)cc1)CC(=O)Nc1ccc(Cl)cc1Cl
 : -19	-2%	0.7	0	-14%	-6%	-1.5%
O/N=C/c1cc(Br)ccc1OCc1cccc(F)c1
 : 2	-13%	1.5	9	18%	-21%	1.6%
Cc1nc(-c2nnc(-c3ccccc3)o2)c(C(F)(F)F)o1
 : -1	-6%	-3.0	-2	-22%	3%	nt
Cc1ccc(S(=O)(=O)N2CCC(C(=O)NCC(C)(C)N3CCOCC3)CC2)c(C)c1
 : -4	nt	nt	3	24%	12%	1.8%
COc1cc(/C=C2/SC(=S)N(CCC(=O)N3CCN(C)CC3)C2=O)cc(OC)c1OC
 : -8	nt	nt	nt	-92%[inhibitor]	nt	1.0%
Cc1nc(N)[nH]c(=O)c1CCCNc1ccc([N+](=O)[O-])cc1
 : -10	nt	nt	nt	?	-4%	nt
CCOc1ccc(NC(=S)NCCN2CCN(Cc3ccccc3)CC2)cc1
 : -26	18%	-6.8	-1	-35%[inhibitor]	-6%	0.0%
Cc1c(CN(C)C(=O)c2sc3cc(Cl)ccc3c2Cl)cnn1C
 : -12	0%	6.0	1	10%	-24%	0.2%
O=C(O)C12CC3CC(C1)CC(n1ncc(NCc4ccco4)c(Cl)c1=O)(C3)C2
 : 2	35µM*	-15	0	18%[15.4 µM]	3%	nt
CN(c1ccccc1)c1nc(N)c([N+](=O)[O-])c(N2CCCCCC2)n1
 : -12	-4%	-0.9	-17	-4%[15.4 µM]	-8%	nt
O=C(NCc1nc2ccccc2[nH]1)c1cccc(S(=O)(=O)N2CCCCC2)c1
 : -10	12%	0.0	?	0%[15.4 µM]	nt	nt
Cc1ccc(CNC(=O)CCS(=O)(=O)c2ccc3c(c2)NC(=O)C(C)S3)cc1 (stereo not given)
 : -6	22%	0.3	16	-51%[inhibitor]	1%	-2.7%
O=C(NCC(c1ccc(F)cc1)N1CCOCC1)c1ccc(OCc2ccccc2)cc1 (stereo not given)
 : -14	nt	nt	nt	3%	-7%	0.8%
CCN1C(=O)Cc2cc(S(=O)(=O)NCCc3ccccc3)ccc21
 : 0	4%	0.1	0	-25%	3%	nt
CC(=O)c1cn(CC(=O)Nc2ccc(C)cc2)c2ccccc12
 : -18	29%	1.0	-8	20%	10%	0.3%
CSc1nc(N)nc2c1ncn2CC(=O)N1CCN(Cc2c(C)cc(C)cc2C)CC1
 : 2	nt	nt	nt	nt	2%	-6.2%
Nn1c(SCC(=O)Nc2ccccc2Oc2ccccc2)nnc1C1CC1
 : -12	nt	nt	0	?	-9%	-0.7%
Cc1ccc(/C=N/NC(=O)C(O)c2ccccc2)o1 (stereo not given)
 : -2	-14%	2.0	-29	-1%	-1%	nt
CCc1nc2oc3cc(OC)ccc3c(=O)c2c(=O)n1Cc1ccccc1
 : -8	5%	5.2	1	-1%	-14%	-6.2%
CCCCN(C(=O)Cc1ccc2c(c1)OCCO2)c1c(N)n(CCC)c(=O)[nH]c1=O
 : 0	nt	nt	0	15%	6%	-1.0%
C/C(CC(=O)Nc1ccc2c(c1)OCCO2)=N\NC(=O)c1cccc(O)c1
 : -3	10%	-2.7	-3	19%[15.4 µM]	0%	nt
CCN(C(=O)COC(=O)c1ccc2c(=O)n3c(nc2c1)CCC3)C1CCS(=O)(=O)C1 (stereo not given)
 : -8	13%	-3.4	5	-7%[15.4 µM]	3%	-1.3%
Cc1ccc(C23CC4CC(CC(C(=O)N5CCOCC5)(C4)C2)C3)cc1
 : 3	13%	4.4	-13	-11%	-12%	0.8%
Cc1ccc(/C=C2\SC(N3CCCCC3)=NC2=O)cc1
 : -4	-1%	-0.3	-2	0%[15.4 µM]	-4%	?
C=CCC(CC=C)(NC(=O)c1cccc(C)c1)c1ccccc1
 : 5	-3%	2.6	-6	-36%[inhibitor]	-13%	-20%
O=C(Nc1ccc2oc(-c3ccncc3)nc2c1)c1ccc(Br)o1
 : 2	4%	nt	4	0%[15.4 µM]	-4%	nt
CN(Cc1ccccc1)C(=O)c1cccc(NC(=O)C2CCCN(C(=O)OC(C)(C)C)C2)c1 (stereo not given)
 : 3	nt	nt	nt	-9%	-15%	2.0%
O=C(Nc1ccccc1N1CCCC1)c1ccc(Br)o1
 : 1	-1%	2.3	1	7%	-16%	-1.8%
Clc1cccc(CSc2nc3ccncc3[nH]2)c1
 : -1	?	-4.4	-10	-32%	4%	-5.2%
O=C(CSc1nc(Nc2ccccc2)nc(N2CCOCC2)n1)N1CCCC1
 : -4	10%	5.1	1	-11%	-18%	-2.3%
Cc1ccccc1OCC(O)CN1CCN(c2ccccn2)CC1 (stereo not given)
 : -25	10%	0.3	4	-3%[15.4 µM]	16%	nt
COc1ccccc1NC(=O)CN1C(=O)CC(C)S(=O)(=O)c2ccccc21 (stereo not given)
 : -4	11%	nt	-2	7%	-2%	-1.9%
COc1ccc(C(O)(C(C)C)C(CN2CCOCC2)c2ccc(Cl)cc2)cc1 (stereo not given)
 : -8	0%	0.0	-9	?	-7%	-1.3%
C#CC[N+](C)(C)C(C#Cc1ccccc1)CC=C (stereo not given)
 : -1	22%	3.5	1	-8%	9%	1.4%
CCN(C[C@H]1N[C@@](C)(C(=O)OC)[C@H]2C(=O)N(Cc3ccccc3)C(=O)[C@@H]12)C(=O)c1ccc(C(C)(C)C)cc1
 : ?	nt	nt	nt	nt	-20%	1.0%
O=C(Nc1ccc(F)cc1F)c1cc2ccccc2oc1=O
 : -15	2%	-0.1	-22	2%	11%	-3.3%
CC(C(=O)OCC(=O)Nc1ccccc1OC(F)F)N1C(=O)C2CC=CCC2C1=O (stereo not given)
 : -6	nt	nt	nt	?	nt	0.9%
COc1cccc(-c2nc(CS(=O)(=O)CC(=O)Nc3c(C)cccc3C)c(C)o2)c1
 : 0	17%	2.8	6	?	-8%	-13%
CC(=O)[C@H]1[C@H](C#N)C[C@H]2[C@@H]3CC=C4C[C@@H](O)CC[C@]4(C)[C@H]3CC[C@@]21C
 : -6	-15%&7%&18%	-2.8	7	nt	-13%	-0.7%&-0.7%
CC(=NCCN1CCN(C(=S)Nc2ccccc2)CC1)C1=C(O)CC(C)(C)CC1=O
 : -11	15%	6.2	12	5%	7%	0.1%

(next part)
The line under a structure holds: D2 PAM	Sfp inh	Menin-MLL FL inh	TRPV1 potentiator	gsp agonist	gsp antag	ClpP mod
NS(=O)(=O)c1ccc(CCNC(=O)c2cncc(Br)c2)cc1
 : -8	20%	1.8	-1	1%	3%	-4.6%
C#CC1(NC(=O)NS(=O)(=O)c2ccc(C)cc2)CCCCC1
 : -10	14%	0.2	3	16%	2%	-4.8%
O=c1c2cnn(-c3ccccc3)c2nc(-c2cccs2)n1-c1cccc(Cl)c1
 : -26	?	5.7	-1	-10%	-19%	?
N#Cc1nc(-c2ccccc2Cl)oc1NCC1CCCO1 (stereo not given)
 : -5	12%	0.6	-10	?	5%	4.8%
Cc1noc(C)c1COc1ccc2ccc(=O)oc2c1
 : -13	22%	-4.7	2	12%[15.4 µM]	nt	nt
COc1cc(C)c2c(c1C=O)Oc1c(c(C)c(O)c3c1C(O)OC3=O)OC2=O (stereo not given)
 : 2	?	21&19&-4.7	18	nt	-15%	3.0%
O=C(N/N=C/c1ccc(O)c([N+](=O)[O-])c1)C1CC1(c1ccccc1)c1ccccc1 (stereo not given)
 : -14	-22%	-0.9	5	-3%[15.4 µM]	-17%	nt
O=C(CN(Cc1ccco1)C(=O)c1cccc(F)c1)Nc1ccccc1C(F)(F)F
 : 2	nt	nt	0	14%	-2%	-1.1%
CCCNC(=O)C1(CC2CC(c3ccccc3)=NO2)CCN(C(=O)CCCCCBr)CC1 (stereo not given)
 : -8	nt	nt	nt	nt	9%	0.9%
CC(C)N1CCc2[nH]c(=S)[nH]c(=O)c2C1
 : -20	45µM*	6.6	-4	-7%	10%	-27%
Clc1ccc2nc(-c3ccc(Cl)nc3)[nH]c2c1
 : 14	10%	-0.8	-14	-9%[15.4 µM]	-1%	nt
Fc1ccc(NC(=S)NC2CC3CCC(C2)N3Cc2ccco2)cc1 (stereo not given)
 : -16	13%	-0.4	2	-2%[15.4 µM]	-1%	-1.5%
O=S(=O)(/N=C(\c1ccccc1)N1CCOCC1)c1cccs1
 : 1	18%	3.1	6	-5%	1%	3.6%

Source: PubChem BioAssay (National Center for Advancing Translational Sciences (NCATS))
